Compound activity from PubChem BioAssay.
SARS PLpro yeast = qHTS of Yeast-based Assay for SARS-CoV PLP; S. cerevisiae expressing SARS-CoV PLpro, growth rescue; control for the full effect not named in the record; Potency, µM (doses to about 32.9 µM), inactives show at the highest dose activity, positive = growth rescue; 0.19% of 330,000 active; active means well fitted rising curve with a large enough effect; inconclusive means small, poorly fitted or top-dose-only effect; inactive means no such curve, though single readings can be large or run the other way; further: 0% is about no effect; nearly all actives have a fitted effect of over 55% in size; growth read by luminescence after 48 h
LASV entry inh = qHTS for Inhibitors of binding or entry into cells for Lassa Virus | Lassa virus pseudotype entry inhibition, cell reporter; control for the full effect not named in the record | Potency, µM (doses to about 37.9 µM), without a hit: at the highest dose activity change, negative = inhibition, most hits filed as inhibitors | 1.2% of 300,000 active | AID 540256, 2011; active means well fitted inhibition curve with a large enough effect; inconclusive means small, poorly fitted or top-dose-only effect, or effect the other way; inactive means flat fitted curve, though single readings scatter; tested in HEK293 cells; further: on the % scale 0 is the no-effect control and ±100 the full control effect; nearly all actives have a fitted effect of over 50% in size; luciferase read-out
NS1 function inh = qHTS Assay for Inhibitors of Influenza NS1 Protein Function. S. cerevisiae slowed by influenza A NS1, growth recovery by OD600. Potency, µM (doses to about 46.1 µM), for inactives: top-dose activity, positive = more growth. 0.4% of 270,000 active; active means well fitted rising curve with a large enough effect; inconclusive means small, poorly fitted or top-dose-only effect; inactive means no such curve, though single readings can be large or run the other way; further: nearly all actives have a fitted effect of over 50% in size
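Growth recovery, yeast-based: influenza A NS1 expressed in S. cerevisiae causes slow growth, and suppressors are detected by OD600. The parent strain without NS1 is used as positive control.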
RE007 growth inh = qHTS Assay for Inhibitors of the HIV-1 protein Vpr; S. pombe RE007 Vpr strain, BacTiter-Glo ATP luminescence, 24 h; control for the full effect not named in the record; Potency, µM (top dose mostly 92.2 µM), without a hit: at the top dose activity change, negative = less growth; 0.21% of 360,000 active; active = well fitted falling curve with a large enough effect; inconclusive = small, poorly fitted or top-dose-only effect; inactive = no such curve, though single readings can be large or run the other way;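 further: on the % scale 0 is the no-effect control and ±100 the full control effect; nearly all actives have a fitted effect of over 50% in size; the assay follows cell death caused by Vpr and the record does not say whether a fall means rescue or toxicity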
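Fission yeast strain RE007, carrying one chromosomally integrated HIV-1 vpr copy, was seeded at OD 0.01 in PMG+AL medium with 23 nL pinned compound. After 24 h at 30 °C and 99% humidity, viability was read by BacTiter-Glo luminescence.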
StopGo reporter = High Throughput Screening for Foot and Mouth Disease Virus Antivirals; human cells with a luciferase reporter of 2A StopGo recoding; control for the full effect not named in the record; Potency, µM (doses to about 57.9 µM), for the others: at the highest dose signal change, negative = less light; 1.2% of 410,000 active; active = well fitted falling curve with a large enough effect; inconclusive = small, poorly fitted or top-dose-only effect; inactive = no such curve, though single readings can be large or run the other way; tested in HEK293T cells; further: on the % scale 0 is the no-effect control and ±100 the full control effect; nearly all actives have a fitted effect of over 45% in size; luciferase light after 4 h
Cruzain inh Det = qHTS Assay for Promiscuous and Specific Inhibitors of Cruzain (with detergent) | purified cruzain, Z-FR-AMC fluorescence, 0.01% Triton | Potency, µM, without a hit: max response, negative = inhibition, hits mostly inhibitors | 0.43% of 200,000 active | AID 1478, 2009;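 further: plate controls were neutral wells for no effect and buffer without enzyme for full effect; nearly all actives have a fitted effect of over 40% in size; top concentration of the series not given in the record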
Target sequence (P25779 123-467 limits assumed): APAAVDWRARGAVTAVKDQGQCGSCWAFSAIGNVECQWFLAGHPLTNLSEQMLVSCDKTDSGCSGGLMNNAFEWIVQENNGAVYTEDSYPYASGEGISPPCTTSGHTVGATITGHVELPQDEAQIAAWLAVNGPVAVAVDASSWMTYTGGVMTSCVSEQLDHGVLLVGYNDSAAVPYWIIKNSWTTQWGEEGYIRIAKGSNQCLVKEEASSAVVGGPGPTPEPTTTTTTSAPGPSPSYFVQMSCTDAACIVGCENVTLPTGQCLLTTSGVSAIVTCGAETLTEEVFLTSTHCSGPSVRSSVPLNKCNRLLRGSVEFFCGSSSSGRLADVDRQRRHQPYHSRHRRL
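Z-FR-AMC hydrolysis (2 uM substrate) by cruzain (1.5 nM) monitored kinetically at ex 360/em 450 nm after 15 min room-temperature compound exposure; 0.01% Triton X-100, pH 5.5, 5 mM DTT.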
Marburg entry inh = qHTS for inhibitors of binding or entry into cells for Marburg Virus | AID 540276, 2011 | Potency, µM (doses to about 37.8 µM), for inactives: top-dose activity change, negative = inhibition, hits mostly inhibitors | 1.8% of 300,000 active | Marburg virus pseudotyped entry inhibition, cell reporter; control for the full effect not named in the record; about a third of the inactives were read at about 46 µM; active = well fitted inhibition curve with a large enough effect; inconclusive = small, poorly fitted or top-dose-only effect, or effect the other way; inactive = flat fitted curve, though single readings scatter; tested in HEK293 cells; about a fifth of its hits are not listed in these tables; further: on the % scale 0 is the no-effect control and ±100 the full control effect; luciferase read-out
Cruzain inh noDet = qHTS Assay for Promiscuous and Specific Inhibitors of Cruzain (without detergent); purified cruzain, Z-FR-AMC fluorescence, no detergent; 2.3% of 200,000 active; Cruzipain (Trypanosoma cruzi), P25779; Potency, µM, for the others: max response, negative = inhibition, most hits filed as inhibitors;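 further: plate controls were enzyme without inhibitor for no effect and buffer without enzyme for full effect; nearly all actives have a fitted effect of over 40% in size; top concentration of the series not given in the record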
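Detergent-free condition (0.00005% Triton X-100) in acetate buffer pH 5.5 with DTT. 1.5 nM enzyme and compound were pre-mixed 15 min, then 2 uM Z-FR-AMC substrate added; reaction progress from fluorescence change between first and third reads (60 s).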
Starred values were filed as active, the others as inactive; ? = inconclusive; . = no result given; & = joins results of further samples; [ ] = another dose, or the depositor's remark. Unless noted, the call rests on the fitted dose curve; in most records, active means well fitted curve in the direction sought with a large enough effect; inconclusive means small, poorly fitted or top-dose-only effect, or another doubt; inactive means no such curve, though single readings can be large; an effect the other way counts as inactive or inconclusive. Potency means the concentration at half of the fitted maximal effect.

Fields – StopGo reporter	Marburg entry inh	NS1 function inh	Cruzain inh Det	LASV entry inh	Cruzain inh noDet	RE007 growth inh	SARS PLpro yeast
CC1Cc2ccccc2N1C(=O)C1CCN(S(=O)(=O)c2cccs2)CC1 (stereo not given)
    .	-3%	-10%	-2.3%	-27%	-14%	-2%	2%
Cc1cc(NCCCOC(C)C)n2c(nc3ccccc32)c1C#N
    -25%	.	-11%	.	.	.	6%	3%
N#C/C(N)=C(/N)C#N
    0%	.	.	4.2%	.	-2%	-1%	1%
Cc1cc(C)n2nc(C(=O)Nc3ccc4c(c3)CCC4)nc2n1
    57%[activator]	3%[46.1 µM]	.	.	.	.	-9%	-1%
COc1ccccc1-n1c(/C=C/c2ccccc2)nc2ccccc2c1=O
    -2%	.	.	-1.1%	-3%[46.1 µM]	-2%	.	.
COc1cc(C2NC(=O)NC(C)=C2C(=O)OC2CCCC(C)C2)ccc1O (stereo not given)
    -23%	-5%	8%	-7.2%	?	6%	-1%	-2%
CC(NC(=O)Oc1cccc2ccccc12)c1ccccc1 (stereo not given)
    4%	9%[46.1 µM]	.	.	-13%[46.1 µM]	.	-12%	.
CC(C)CC(=O)Nc1ccc(-c2nnn(CC(=O)NCc3ccco3)n2)cc1
    42%[activator]	?	7%	.	3%[46.1 µM]	.	4%	2%
COc1ccc(OCC(=O)Nc2cccc(OC)c2)cc1
    1%	?	-49%	0.3%	0%	-16%	7%	-11%
CCN(CC)CCCSc1nc2ccccc2s1
    35%[activator]	?	.	.	-11%	.	-14%	-4%

Carrying on:
Fields – StopGo reporter	Marburg entry inh	NS1 function inh	Cruzain inh Det	LASV entry inh	Cruzain inh noDet	RE007 growth inh	SARS PLpro yeast
Cc1ccc(NC(=O)C2CCCN(C(=O)c3cnn(-c4ccccc4)c3-n3cccc3)C2)cc1 (stereo not given)
    ?	0%[46.1 µM]	.	-2.1%	-8%[46.1 µM]	0%	.	.
COc1c(O)ccc2c1CN1CCc3cc4c(cc3C1C2)OCO4 (stereo not given)
    ?	.	-12%	.	.	.	-20%	-1%
COC(=O)C1=C(C)N=C2SC(C#N)=C(N)N2C1c1ccc(OC)cc1 (stereo not given)
    0%	-20%	8%	-2.6%	-17%	-6%	5%	-7%
O=C(OCc1ccccc1)C1=NNC2C(=O)N(c3ccc(Br)cc3)C(=O)C12 (stereo not given)
    -11%	?	-26%	.	11%	.	14%	0%
CN(C)S(=O)(=O)c1cccc(NC(=S)N(CCC#N)Cc2cccnc2)c1
    -10%	21%	.	.	23%	.	-3%	-3%
CCC1(c2ccccc2)NC(=S)N(c2ccc(C)cc2)N1 (stereo not given)
    17%	?	.	.	7%[46.1 µM]	.	-4%	11%
Cc1nc(NCc2cccnc2)c2c3c(sc2n1)CC(C)CC3 (stereo not given)
    16%	16%	.	.	12%	.	-11%	-3%
CSc1nc(C)cc(SC(C(C)=O)C(=O)Nc2ccccc2)n1 (stereo not given)
    16%	?	-76%	-7.2%	16%	-10%	17%	-20%
NC(=O)C1CCN(C2=C(NS(=O)(=O)c3ccccc3)C(=O)c3ccccc3C2=O)CC1
    ?	?	-1%	.	?	.	-30%	0%
CC(C)OC(=O)c1cccc(C(=O)Oc2ccccc2)n1
    .	17%	-25%	1.5%	-9%	2%	-11%	-5%

Going on with the list.
Fields – StopGo reporter	Marburg entry inh	NS1 function inh	Cruzain inh Det	LASV entry inh	Cruzain inh noDet	RE007 growth inh	SARS PLpro yeast
CCc1cc2c(=O)n(Cc3ccco3)c(SCc3c(C)noc3C)nc2s1
    -21%	?	-19%	-11%	?	-12%	-5%	-10%
NC(=O)C1(N2CCCCC2)CCN(CC(=O)Nc2ccccc2-c2ccccc2)CC1
    .	?	1%	4.8%	-1%	15%	9%	7%
COc1ccc(Br)cc1CN1CCSCC1
    -2%	6%	17%	.	6%	.	6%	2%
CSCCC(NC(=O)COc1ccccc1)C(=O)OCc1ccc([N+](=O)[O-])cc1 (stereo not given)
    -4%	13%	.	.	13%	.	-25%	.
COc1ccc(CC(=O)N/N=C/c2cccs2)cc1OC
    -7%	0%	-1%	.	.	.	-10%	1%
CC(=O)N(C)c1ccc(NC(=O)Nc2cccc3ccccc23)cc1
    101%[activator]	.	5%	.	.	.	-9%	1%
O=C(CCCN1C(=O)c2cccc3cccc(c23)C1=O)NCc1cccs1
    -13%	-24%[46.1 µM]	.	.	-2%	.	-9%	2%
Cc1ccc(CN2CCNC(=O)C2CC(=O)O)cc1 (stereo not given)
    -1%	.	-1%	1.7%	.	0%	16%	-3%
CC(=O)c1ccc(OCCCOc2cccc3cccnc23)cc1
    -8%	.	-39%	.	.	.	-20%	-6%
Cc1cccc(NS(=O)(=O)c2coc(C(N)=O)c2)c1C
    -16%	.	16%	.	.	.	10%	?

Reformatted with tabs: entries from further up
SMILES	StopGo reporter	Marburg entry inh	NS1 function inh	Cruzain inh Det	LASV entry inh	Cruzain inh noDet	RE007 growth inh	SARS PLpro yeast
NC(=O)C1(N2CCCCC2)CCN(CC(=O)Nc2ccccc2-c2ccccc2)CC1	.	?	1%	4.8%	-1%	15%	9%	7%
COc1ccc(Br)cc1CN1CCSCC1	-2%	6%	17%	.	6%	.	6%	2%

New compounds follow:
Fields – StopGo reporter	Marburg entry inh	NS1 function inh	Cruzain inh Det	LASV entry inh	Cruzain inh noDet	RE007 growth inh	SARS PLpro yeast
O=C(C[n+]1ccccc1)Nc1ccccc1C(F)(F)F
    8%	.	14%	.	.	.	-9%	-3%
C=CCSc1nsc(NC(=O)Nc2cccc(C(C)=O)c2)n1
    -27%	?	6%	.	?	.	-27%	-5%
NS(=O)(=O)c1cccc(NC(=O)/C=C/c2cccs2)c1
    33%[activator]	-2%	2%	.	?	.	4%	3%
COCCNc1ncnc2nc[nH]c12
    -15%	-10%	-13%	5.5%	1%	-10%	-1%	2%
Cn1cnc([N+](=O)[O-])c1Sc1n[nH]c(N)n1
    -7%	.	10%	.	.	.	21%	1%
O=C(Cc1ccc(F)cc1)NCc1cccnc1
    2%	.	3%	.	.	.	-4%	0%
COc1ccc(Cl)cc1NC(=O)CN(C)C(=O)c1ccc(N2CCCCC2)c([N+](=O)[O-])c1
    ?	?	.	.	?	.	3%	.
CSc1nnc(CNS(=O)(=O)c2ccc(F)cc2)n1C
    -7%	10%[46.1 µM]	5%	.	6%	.	-8%	4%
COc1ccc2c(c1)c1ncnc(N3CCN(Cc4ccc5c(c4)OCO5)CC3)c1n2C
    .	-4%	-35%	-2.5%	.	-2%	.	-7%
CCOc1ccc(NCC(=O)N/N=C/C=C/c2ccccc2)cc1
    40%[activator]	3%	?	-4.5%	-2%	-23%	-12%	-19%

Next part.
Fields – StopGo reporter	Marburg entry inh	NS1 function inh	Cruzain inh Det	LASV entry inh	Cruzain inh noDet	RE007 growth inh	SARS PLpro yeast
N/C(CS(=O)(=O)c1ccccn1)=N\OC(=O)c1ccccc1Cl
    9%	1%[46.1 µM]	-7%	.	-2%	.	-8%	0%
Cc1cccc(OCC(=O)N2CCC(N3CCCCCC3)CC2)c1
    4%	-21%&-21%	1%	2.0%	-1%	17%	-5%[3.69 µM]	0%
COC(=O)[C@@]1(Cc2ccc(OC)cc2)[C@H]2c3cc(C(=O)N(C)C)n(CCSCCO)c3C[C@H]2CN1C(=O)c1ccccc1
    -20%	-8%	-26%	2.5%&-2.5%	1%	?	16%	-13%
O=c1ccc(-c2nc3cc(Cl)ccc3n2Cc2ccccc2)c[nH]1
    -21%	?	1%	.	-2%[46.1 µM]	.	-20%	-1%
Cn1cc(/C(Cc2ccccc2)=N\O)c2ccccc21
    -8%	?	1%	-5.8%	-23%	3%	?	11%
Cc1ccc(NC(=O)c2nc3nccc(C)n3n2)c(C)c1
    13%	?	.	.	-1%[46.1 µM]	.	-20%	0%
CN(CCCNC(=O)C1CCCN(S(=O)(=O)c2cnc[nH]2)C1)c1ccccc1 (stereo not given)
    -17%	.	18%	5.0%	.	-6%	-2%	11%
Cc1ccc(S(=O)(=O)N2CCN(c3ccccc3)CC2)cc1
    -14%	4%	7%	.	15%	.	11%	.
CC(=O)N(C)c1ccc(NC(=O)C(c2ccccc2)c2ccccc2)cc1
    -12%	?	.	.	-3%	.	4%	.
CCOC(=O)c1c(NCc2ccccc2)n[nH]c1C
    14%	1%	-15%	-1.6%	?	3%	3%	8%

The list goes on (four carried over from the part before).
Fields – StopGo reporter	Marburg entry inh	NS1 function inh	Cruzain inh Det	LASV entry inh	Cruzain inh noDet	RE007 growth inh	SARS PLpro yeast
CN(CCCNC(=O)C1CCCN(S(=O)(=O)c2cnc[nH]2)C1)c1ccccc1 (stereo not given)
    -17%	.	18%	5.0%	.	-6%	-2%	11%
Cc1ccc(S(=O)(=O)N2CCN(c3ccccc3)CC2)cc1
    -14%	4%	7%	.	15%	.	11%	.
CC(=O)N(C)c1ccc(NC(=O)C(c2ccccc2)c2ccccc2)cc1
    -12%	?	.	.	-3%	.	4%	.
CCOC(=O)c1c(NCc2ccccc2)n[nH]c1C
    14%	1%	-15%	-1.6%	?	3%	3%	8%
Cc1nc(CCNC(=O)Cc2ccc(F)cc2)cs1
    -12%	.	9%	-6.6%	.	13%	6%	1%
CCOC(=O)c1[nH]c(C)c(C(=O)c2ccc(C)cc2)c1C
    40%[activator]	?	9%	-0.5%	-36%[14.3 µM]	?	4%	0%
O=C(CSc1ncc(-c2ccc(F)cc2)[nH]1)N1CCCCC1
    .	25%	-7%	-5.5%	8%	-1%	5%	2%
Cc1ccc(CC(=O)Nc2ccc(S(=O)(=O)Nc3nccc(C)n3)cc2)cc1
    20%	.	10%	.	.	.	-17%	-1%
